Screens from PubChem.
miR-21 FLuc – raises the signal of a miR-21 reporter; HeLa miR-21 FLuc reporter, luciferase, 48 h; Potency, µM (doses to about 38.3 µM), for the others: at the highest dose reporter change, positive = more light; 340,000 tested, under 10 active; AID 2288; active = well fitted rising curve with a large enough effect; inconclusive = small, poorly fitted or top-dose-only effect; inactive = no such curve, though single readings can be large or run the other way;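 further: % of control where 0% means no effect; miR-21 action dims this reporter so a rising signal means less miR-21 action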
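Compounds were titrated across several concentrations (up to approximately 40 uM) and incubated 48 hours with HeLa miR-21-FLuc reporter cells (miR-21 target sequence downstream of FLuc, endogenous miR-21). Readout was firefly luciferase luminescence after lytic detection reagent.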
* = called active by the depositor; ? = inconclusive. This is a subset; rates above refer to the full screens.

SMILES	miR-21 FLuc
Cc1cccc(-n2cc(-c3ccccc3)c3c(NC4CCCC4)ncnc32)c1	0%
Cc1ccc(NC(=O)Cn2c(=O)n(Cc3nc(-c4ccccc4)no3)c(=O)c3cc4c(cc32)OCO4)cc1F	2%
CCc1ccccc1NC(=O)Cn1nnc(C(=O)OC)c1C(=O)OC	2%
CCc1ccc(NC(=O)CSc2nc3ccccc3c(=O)n2CCC(=O)NC2CCCCC2)cc1	1%
Cc1cc2oc(C(=O)Nc3cccc(-c4nc5ccccc5o4)c3)c(C)c2cc1Cl	-2%
CCc1cccc(NC(=O)CCc2nc3cccnc3n2Cc2ccc(OC)cc2)c1	-3%
COc1ccccc1N1CCN(C(=O)c2cnc(N3CCOCC3)c3ccccc23)CC1	22%
COc1ccccc1C(=O)N(Cc1ccco1)Cc1ccccc1F	13%
COc1cc(OC)c(OC)cc1/C=C/c1nc2cc3ccccc3cc2c(=O)n1-c1ccc(F)c(Cl)c1	-2%
Cc1ccc(C)c(N2CCN(C(=O)c3ccc4c(Cl)c5c(nc4c3)CCCC5)CC2)c1	-2%
CCOc1ccc(NC(=O)Cn2cc(S(=O)(=O)c3ccc(C)cc3)c(=O)c3cc(F)ccc32)cc1	-6%
COc1cc(C2CC(=O)Nc3c2c(C)nn3-c2nc(C)cc(C)n2)cc(OC)c1O (stereo not drawn)	-9%
CC(=O)c1cc(C(=O)Nc2cccc(C)c2)c2ccccn12	-17%
Cc1nn(C(=O)c2ccccc2)c(C)c1S(=O)(=O)N1CCCCCC1	-1%
CCc1ccccc1Nc1nn2c(=O)c3ccc(C(=O)NC4CCC(C)CC4)cc3nc2s1 (stereo not drawn)	23%
O=C(/C=C\c1ccc2c(c1)OCO2)NC1CC(=O)N(c2cccc(F)c2)C1 (stereo not drawn)	7%
COc1ccc(CNC(=O)CSc2n[nH]c(-c3ccc(F)cc3)n2)cc1	17%
CC(CNC(=O)c1sc2ncccc2c1-n1cccc1)c1ccccc1 (stereo not drawn)	7%
CCCOc1ccc(C2C(=O)N(C3CCCCCC3)CC(=O)N2CCC)cc1OC (stereo not drawn)	-11%
Cc1ccc(C(=O)Nc2nc(-c3nnn(-c4cccc(C(F)(F)F)c4)c3C)ns2)cc1	-32%
CCN(C(=O)c1cc(S(=O)(=O)N2CCc3ccccc32)cn1C)c1cccc(C)c1	?
COCc1cc(C)nc2sc3c(=O)n(-c4cc(C)ccc4C)nnc3c12	9%
COc1cccc(-n2c(SCC(=O)Nc3cc(C)ccc3C)nc3c(oc4ccccc43)c2=O)c1	7%
Cc1cc(F)ccc1NC(=O)c1ccc2nc(Cc3ccccc3)oc2c1	20%
O=C(Nc1cccc2cccnc12)c1ccccc1[N+](=O)[O-]	-28%
Cn1cc(C(=O)NCc2ccccc2)c(=O)c2cc(S(=O)(=O)N3CCCCCC3)ccc21	-7%
CCOC(=O)c1ccc(NC(=O)CCc2c(C)nc3cc(-c4ccc(OC)cc4OC)nn3c2C)cc1	-1%
CN(C)c1ccc(NC(=O)Cn2c(SCc3ccccc3F)nc3cccnc32)cc1	-35%
Cc1nn(CCC(=O)Nc2cccc(C#N)c2)c(C)c1S(=O)(=O)N1CCC(C)CC1	6%
COc1ccc2c(c1)c1c(c(=O)n(CCc3ccccc3)c(=O)n1Cc1ccc(F)cc1)n2C	4%
O=[N+]([O-])c1cc(-c2nc(-c3ccccc3)no2)ccc1N1CCOCC1	19%
CCOC(=O)C1=C(CN2CCN(C)CC2)NC(=O)NC1c1ccc(F)cc1 (stereo not drawn)	-7%
CSc1ccc(CNC(=O)C2CCCN(S(=O)(=O)N(C)c3ccc(F)cc3)C2)cc1 (stereo not drawn)	27%
O=C(NCc1ccc(F)cc1)c1ccc2c(c1)N(Cc1ccc(F)cc1Cl)C(=O)CS2	1%
Clc1ccc2nc(NCc3ccccc3)c3nncn3c2c1	-1%
COc1ccc(NC(=O)c2cc(C3CC3)nc3c2c(C)nn3-c2ccccc2)cc1	0%
CCN(CC)CCCNC(=O)c1ccc2c(c1)NC(=O)C(CS(=O)(=O)Cc1cccc(Br)c1)N2 (stereo not drawn)	-2%
CCOc1ccc(CCNC(=O)c2ccc3c(c2)sc2nc(-c4ccc(F)cc4)cn23)cc1OCC	2%
O=C(Nc1ccc(F)c(Cl)c1)Nn1cnnc1	-5%
COc1ccc(S(=O)(=O)Nc2ccc3oc4c(c3c2)CCCC4)cc1	27%

The closing 3 compounds of the section above open the next one:
SMILES	miR-21 FLuc
CCOc1ccc(CCNC(=O)c2ccc3c(c2)sc2nc(-c4ccc(F)cc4)cn23)cc1OCC	2%
O=C(Nc1ccc(F)c(Cl)c1)Nn1cnnc1	-5%
COc1ccc(S(=O)(=O)Nc2ccc3oc4c(c3c2)CCCC4)cc1	27%
O=C(NC1CC(=O)N(c2ccc(F)cc2)C1)C1CCCCC1 (stereo not drawn)	-3%
COc1ccc(C)cc1-n1c(-c2ccc(C)cc2)cc2c1CC(C)(C)CC2=O	-3%
O=C(CNS(=O)(=O)c1ccc(Br)s1)N1CCN(c2ccccc2F)CC1	-3%
COc1ccc(NC(=O)c2oc3c(c2C)-c2nn(Cc4ccccc4Cl)cc2CC3)cc1OC	0%
COc1cccc(CNC(=O)CSc2n[nH]c(-c3ccccc3Cl)n2)c1OC	-10%
O=C(NCc1ccc(F)cc1)c1cc2cccc3c2n1CCS3	15%
CCSc1ncc(Cl)c(C(=O)N(Cc2ccccc2Cl)C2CCS(=O)(=O)C2)n1 (stereo not drawn)	-1%
CCOc1ccc(NC(=O)CSC2=Nc3ccccc3C3=NC(CC(=O)NCc4ccccc4OC)C(=O)N23)cc1 (stereo not drawn)	-5%
Cc1ccc(Cl)cc1NC(=O)Cn1c(=O)c2ccccc2n2nncc12	1%
CCOc1ccc(C2C(C(=O)Nc3ccccc3)=C(C)Nc3nc(SCc4cc(C)ccc4C)nn32)cc1 (stereo not drawn)	-4%
O=C(Nc1cccc(Cl)c1)c1cc(-c2ccc3c(c2)OCCO3)on1	-2%
Cc1ccc(-n2ncc3c(Nc4cccc(C(F)(F)F)c4)ncnc32)cc1C	-45%
CCOc1ccc(NC(=O)Cn2c(=O)n(CCC(=O)NCCc3ccccc3)c(=O)c3ccccc32)cc1	0%
COc1ccccc1CNC(=O)CSc1ncc2c(n1)-c1ccc(Cl)cc1N(Cc1ccccc1)S2(=O)=O	0%
CC(C)CNC(=O)c1c(-c2ccccc2)c(-c2ccccc2)nn(C)c1=O	4%
CCOC(=O)c1cnc2c(ccc3ccccc32)c1Nc1ccccc1OC	-3%
COc1ccc(-c2cn3c(n2)sc2cc(C(=O)NCCc4ccccc4)ccc23)cc1	26%
CCCCOc1ccc(C2c3c(-c4ccccc4O)n[nH]c3C(=O)N2Cc2ccncc2)cc1OC (stereo not drawn)	?
Cc1cc2oc(C(=O)Nc3sc4c(c3C(=O)NCC3CCCO3)CCCC4)cc(=O)c2cc1C (stereo not drawn)	1%
O=C1C(=O)N(C2CCNCC2)CCN1Cc1ccccc1	0%
Cc1cc2c(cc1S(=O)(=O)NCc1ccc(F)cc1)n(C)c(=O)c(=O)n2C	2%
CCc1ccc(NC(=O)Cn2nnc(-c3ccccc3N)n2)cc1	-1%
CCCCn1c(=O)c2oc3ccccc3c2n(CC(=O)Nc2cccc(Cl)c2)c1=O	1%
Clc1cccc(-n2ncc3c(NCCc4ccccc4)ncnc32)c1	-34%
CCCc1cnc2c(c1SCC(=O)Nc1ccc(C)c(Cl)c1)c(=O)n(C)c(=O)n2C	3%
Cc1cc(C)c(NC(=O)C(C)n2c(=O)c(C(F)(F)F)nc3ccccc32)c(C)c1 (stereo not drawn)	2%
COc1cccc(CNC(=O)CC(c2ccc(F)cc2)N2Cc3ccccc3C2=O)c1 (stereo not drawn)	15%
CCOC(=O)CSc1nc2cc(OC)c(OC)cc2c2nc(-c3ccccc3)nn12	-4%
O=C(CN1CCN(c2ccc(Cl)cc2)CC1)Nc1ccc(F)cc1F	-24%
COc1ccc(C2=C(C(C)=O)Sc3nnc(-c4ccc(C)cc4)n3N2C(C)=O)cc1OC	1%
CCOC(=O)CC(NC(=O)N1CCC(CN2CCC(C)CC2)CC1)c1ccccc1 (stereo not drawn)	-10%
COc1ccc2c(c1)c1c(c(=O)n(-c3cccc(C)c3)c(=O)n1CC(=O)N1CCCC1)n2C	5%
COc1cccc(CNC(=O)CCCN2C(=O)CCn3nc(-c4cccn4C)cc32)c1	3%
COC(=O)c1c(NC(=O)COc2c(C)ccc(C)c2C)sc2c1CCC(C)C2 (stereo not drawn)	1%
Cc1cccc(OCC(=O)N(Cc2ccc(C(C)C)cc2)Cc2ccco2)c1C	20%
CC1=C(C(=O)Nc2ccccc2C)C(c2ccccn2)n2nc(SCc3ccccc3F)nc2N1 (stereo not drawn)	8%
Cc1cc(NC(=O)Nc2csc3c2CCCC3)ccc1Br	1%
CSc1ccc(CCNC(=O)CCc2c(C)nc3c(c(C)nn3-c3ccccc3)c2C)cc1	0%
Fc1ccc(Nc2nc(SCc3ccccc3F)nc3ccccc23)cc1	25%
COc1ccc(/C=C/C(=O)N2CCC(c3nc4ccccc4o3)CC2)cc1OC	4%

Ordered by molecular weight (lowest first): some entries from above.
SMILES	miR-21 FLuc
Cc1cc2c(cc1S(=O)(=O)NCc1ccc(F)cc1)n(C)c(=O)c(=O)n2C	2%
COc1cccc(CNC(=O)CC(c2ccc(F)cc2)N2Cc3ccccc3C2=O)c1 (stereo not drawn)	15%
CCSc1ncc(Cl)c(C(=O)N(Cc2ccccc2Cl)C2CCS(=O)(=O)C2)n1 (stereo not drawn)	-1%
CCOc1ccc(C2C(C(=O)Nc3ccccc3)=C(C)Nc3nc(SCc4cc(C)ccc4C)nn32)cc1 (stereo not drawn)	-4%

The listing picks up, repeating the 2 entries before the break.
SMILES	miR-21 FLuc
Fc1ccc(Nc2nc(SCc3ccccc3F)nc3ccccc23)cc1	25%
COc1ccc(/C=C/C(=O)N2CCC(c3nc4ccccc4o3)CC2)cc1OC	4%
CCOC(=O)c1c(C)[nH]c(C)c1S(=O)(=O)N1CCN(c2ccc(Cl)cc2)CC1	-5%
CCOc1ccccc1N(CC(=O)Nc1ccc(OC)c(Cl)c1)S(=O)(=O)c1ccccc1	5%
CN1C(=O)c2ccccc2Sc2ccc(NC(=O)COc3ccc(F)cc3)cc21	?
CCOc1ccccc1NC(=O)C1CCC(CNS(=O)(=O)c2ccc3c(c2)CCCC(=O)N3)CC1 (stereo not drawn)	25%
O=S(=O)(c1ccc(Br)cc1)c1nc(-c2ccco2)oc1SCc1ccccc1Cl	19%
Cc1ccccc1C(=O)Oc1cc(-c2ccc3c(c2)OCO3)cc(=O)c2c(C)oc(C)c12	2%
Cc1ccc(NC(=O)CSc2nccn2Cc2ccc3c(c2)OCO3)c(C)c1	0%
COc1ccc(NC(=O)CSc2nc(C)cc(C)c2C(=O)Nc2cccc(C)c2)cc1	-7%
Clc1cccc(-n2ncc3c(NCCC4=CCCCC4)ncnc32)c1	-13%
COc1ccc(-n2c3c(cc(-c4nc(-c5ccc(Cl)cc5)cs4)c2=O)C(=O)CC(C)(C)C3)cc1Cl	-15%
CC(=O)N1c2ccc(S(=O)(=O)N3CCCCCC3)cc2CC1C(=O)NCc1ccc(Cl)cc1 (stereo not drawn)	-2%
Cc1ccccc1N1CC(c2nnc(NC(=O)c3ccco3)s2)CC1=O (stereo not drawn)	-17%
CCc1ccc(-c2[nH]c3c(c2-c2c(-n4cccc4)n(C)c(=O)n(C)c2=O)c(=O)n(C)c(=O)n3C)cc1	0%
CCOc1ccc(NC(=O)c2oc(=O)c3ccccc3c2-c2ccc(C)cc2)cc1	-4%
COc1ccc(Cl)cc1NC(=O)CSc1nc2ccccc2c2nc(-c3ccccc3)nn12	-2%
Cc1cccn2c(=O)c3cc(C(=O)NCc4ccccc4Cl)sc3nc12	-2%
CCOC(=O)Cn1c(=O)n(C2CCCCC2)c2nc(-c3ccccc3Cl)nc(C(N)=O)c21	-1%
Cc1cc(C)n(-c2nc3cc(Cl)c(Cl)cc3nc2Nc2c(C)cccc2C)n1	-1%
Cc1ccc(S(=O)(=O)c2cc3cc(C(=O)O)ccc3oc2=O)cc1	?
CCOc1ccc(-c2cc(NC(=O)Nc3ccc(Cl)cc3)c(C(=O)OC)s2)cc1	-18%
CCN(CC)CCN(C(=O)c1ccco1)c1nc2c(C)c(C)ccc2s1	-17%
COc1cccc(C(=O)Nc2ccc3nc(SCc4ccc(C)cc4)sc3c2)c1	20%
CC(C)c1ccc(OC(=O)c2cc(-c3ccc(Cl)cc3)on2)cc1	0%
CCN1CCN(C(c2ccc(OC)cc2)c2c(O)cc(C)n(CCOC)c2=O)CC1 (stereo not drawn)	1%
CCn1c(C)c(C)c2cc(C(=O)NCc3ccc(OC(C)C)cc3)ccc21	-12%
COc1c(Cl)cc(Cl)cc1/C=C(\C#N)c1nc(-c2ccc(Cl)cc2)cs1	-6%
CCOc1ccccc1N(C)C(=O)c1nn(-c2ccc(C)cc2)c(=O)c2c1c1ccccc1n2C	0%
COc1ccccc1NC(=O)CSC1=Nc2ccccc2C2=NC(CC(=O)NCc3ccco3)C(=O)N12 (stereo not drawn)	23%
Cc1cc(C)cc(NC(=O)NCCn2nnc3cc(S(=O)(=O)N(C)C)ccc32)c1	10%
Cc1cccc(NC(=O)CSc2cn(CC(=O)N3CCCCCC3)c3ccccc23)c1	7%
Cc1ccc(-c2csc(=Nc3ccccc3)n2Cc2ccc3c(c2)OCO3)cc1	-13%
CCN(CC)CCNC(=O)c1ccc(-c2nc(CN3CCc4ccccc43)c(C)o2)cc1	-1%

Gathered by group: the entries above containing an NH in an aromatic ring (five)
SMILES	miR-21 FLuc
COc1ccc(CNC(=O)CSc2n[nH]c(-c3ccc(F)cc3)n2)cc1	17%
COc1cccc(CNC(=O)CSc2n[nH]c(-c3ccccc3Cl)n2)c1OC	-10%
CCCCOc1ccc(C2c3c(-c4ccccc4O)n[nH]c3C(=O)N2Cc2ccncc2)cc1OC (stereo not drawn)	?
CCOC(=O)c1c(C)[nH]c(C)c1S(=O)(=O)N1CCN(c2ccc(Cl)cc2)CC1	-5%
CCc1ccc(-c2[nH]c3c(c2-c2c(-n4cccc4)n(C)c(=O)n(C)c2=O)c(=O)n(C)c(=O)n3C)cc1	0%
